# UUG fidelity: yeast start codon fidelity modulation; S. cerevisiae UUG-firefly luciferase reporter, luminescence/redox ratio; AID 602363; hit rate 0.13% among 350,000; activity score, % at 18.7 µM;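 active = replicate mean at a twofold rise or more, about +100% in these data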;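 note: firefly luciferase made from a UUG start codon reports start codon fidelity; reporter light over untreated wells divided by growth signal over untreated wells; some hits fall short of that in this replicate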
# CSC inhib: cancer stem cell inhibition | AID 2717 | cancer stem cell-like cells viability, luminescence | hit rate 1.1% among 300,000 | inhibition, % at 7.5 µM;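 active = mean at 75% or more and at least half the replicates too; inconclusive = mean and replicates disagree; tested in HMLE shEcad cells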;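 note: 0% = median of negative and 100% = median of positive control wells; the first replicate is given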
# PABP polyA inh: PABP-poly(A) binding inhibition; P11940; PABP-poly(A) RNA binding, fluorescence polarization; inhibition, % at 35 µM; hit rate 1% among 290,000; AID 2014;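 active = 50% or more with normal probe brightness, or confirmed in later tests; inconclusive = above 50% with abnormal brightness, or retests that disagree; inactive = below 50% or failed in later tests; about a fifth of its hits are not listed in these tables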;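 note: calls also rest on retests at 20 µM and on dose response follow-up; controls were probe without protein and protein plus probe with vehicle; some compounds called inactive have numbers as strong as hits; many hits fall short of the cut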
# Target sequence (P11940 whole entry, looked up): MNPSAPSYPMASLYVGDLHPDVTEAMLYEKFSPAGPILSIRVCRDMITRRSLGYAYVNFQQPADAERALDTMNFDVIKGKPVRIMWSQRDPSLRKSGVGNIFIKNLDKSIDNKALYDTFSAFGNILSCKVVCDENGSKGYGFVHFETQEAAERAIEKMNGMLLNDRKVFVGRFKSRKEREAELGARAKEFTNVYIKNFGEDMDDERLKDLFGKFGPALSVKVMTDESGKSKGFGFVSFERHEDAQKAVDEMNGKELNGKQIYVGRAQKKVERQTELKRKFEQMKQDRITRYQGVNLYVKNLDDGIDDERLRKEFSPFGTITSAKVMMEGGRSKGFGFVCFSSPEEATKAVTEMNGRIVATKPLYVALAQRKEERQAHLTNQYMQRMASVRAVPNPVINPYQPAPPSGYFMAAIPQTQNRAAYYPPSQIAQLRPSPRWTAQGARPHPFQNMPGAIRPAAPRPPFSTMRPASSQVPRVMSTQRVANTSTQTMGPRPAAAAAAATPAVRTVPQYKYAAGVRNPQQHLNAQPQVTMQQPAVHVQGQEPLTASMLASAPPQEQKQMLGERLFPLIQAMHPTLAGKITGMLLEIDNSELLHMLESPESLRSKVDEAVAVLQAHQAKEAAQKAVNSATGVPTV
# HIV Env fusion: inhibitors of HIV Env-mediated cell fusion | HeLa-JRFL Env/CEM21 cell fusion, luciferase | inhibition, % at 12.3 µM | hit rate 1.1% among 360,000;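 active = mean replicate inhibition score of at least 50 and every replicate individually at or above 50; inconclusive = only one of the two criteria met; inactive = mean below 50 and not all replicates reaching 50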;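 note: 0% = plate neutral controls and 100% = maraviroc near 300 nM; one replicate is shown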
# Rce1 inh: blocks yeast Ras-converting enzyme; Q03530; hit rate 0.27% among 290,000; calls only; yeast membranes, quenched prenylated peptide cleavage fluorescence;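 active = fall in fluorescence gain of 50% or more versus controls, with final raw signal at or below 3038400; inconclusive = same 50% fall but final raw signal above 3038400; inactive = fall in fluorescence gain under 50%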;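 note: plate controls were neutral control wells for no effect and wells lacking membranes for full effect; tested at 10 µM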
# eIF4H inh: inhibitors of RNA binding by human eIF4H. Q15056. eIF4H fluorescence polarization binding assay. inhibition, % at 35 µM. hit rate 0.94% among 290,000;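 active = 50% or more with normal probe brightness, or confirmed in later tests; inconclusive = above 50% with abnormal brightness, or retests that disagree; inactive = below 50% or failed in later tests; about a fifth of its hits are not listed in these tables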;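 note: calls also rest on retests at 20 µM and on dose response follow-up; 0% = protein and probe with vehicle and 100% = probe without protein; strong numbers were not always called active; many hits fall short of the cut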
# * hit, by the source's call; i = inactive; ? = inconclusive; . = no result given; & = joins results of further samples; [ ] = dose if it differs, or a comment.
SMILES,UUG fidelity,CSC inhib,PABP polyA inh,HIV Env fusion,Rce1 inh,eIF4H inh
C[C@@H]1CCC2[C@@H](C)C(=O)O[C@@H]3OC4(C)CCC1[C@@]23OO4 (some centres not stated),.,22.7,.,.,.,.
CN1C(=O)C(Cc2c[nH]c3ccccc23)C(=O)N(C)C1=O,.,.,-5.4,.,.,-2.5
C[C@]12CCC(=O)C[C@@H]1CC[C@@H]1[C@@H]2CC[C@@]2(C)[C@H]1CC[C@]2(C)O,.,.,5.3,.,.,1.6
O=c1c2cc([N+](=O)[O-])ccc2nc(CN2CCOCC2)n1-c1ccccc1F,.,.,-8.9,.,.,-9.3
CN1C(=O)N(C)C(=O)C2(Cc3c(nc4ccccn4c3=O)N3CCC(Cc4ccccc4)CC32)C1=O (configuration not stated),.,.,15.7,.,.,10.5
Cc1cc(OCC(=O)Nc2cc(C)nn2-c2ccccn2)c2c3c(c(=O)oc2c1)CCC3,.,.,-1.9,.,.,1.1
O=C1NC(=O)C2=Cc3ccc(O)cc3OC2(O)N1 (configuration not stated),.,.,2.0,.,.,?
Cc1ccc2c(c1)C1CN(C)CCC1N2C(=O)Cn1cnc2c1c(=O)n(C)c(=O)n2C (configuration not stated),.,.,6.2,.,.,-1.2
Cc1nnc2n1-c1ccc(Cl)cc1C(c1ccccc1)=NC2,.,.,-11.2,.,.,-3.9
C[C@]12CC(=CO)C(=O)C[C@@H]1CC[C@@H]1[C@@H]2CC[C@@]2(C)[C@H]1CC[C@]2(C)O,.,.,2.0,.,.,12.5
O=[N+]([O-])c1ccc2nc(N3CCNCC3)ccc2c1,.,1.2,.,.,i,.
C/C=C/c1ccc([C@H]2[C@H](CO)N3CCCCN(C(=O)Cc4ccncc4)C[C@@H]23)cc1,-13.0,.,.,.,.,.
COC(=O)[C@H]1[C@H](CO)[C@H]2Cn3c(ccc(-c4ccccc4)c3=O)[C@@H]1N2CC1CC1,0.5,.,.,.,.,.
O=C(Cc1ccccn1)N1CCCCN2[C@H](CO)[C@@H](c3ccc(Br)cc3)[C@@H]2C1,-13.2,.,.,.,.,.
O=C(Cc1ccccc1)N1C[C@H]2[C@@H](c3ccccc31)[C@H](CO)N2Cc1ccccc1,-6.6,.,.,.,.,.
C[C@H]1CN([C@@H](C)CO)C(=O)CCCn2nncc2CO[C@@H]1CN(C)C(=O)Oc1cccc2ccccc12,2.8,.,.,.,.,.
CCCC#Cc1ccc([C@@H]2[C@H]3CN(C(=O)Cc4ccccn4)CCCCN3[C@H]2CO)cc1,23.0,.,.,.,.,.
COc1ccc(C#Cc2ccc([C@H]3[C@H](CO)N4CCCCN(C(=O)Cc5cccnc5)C[C@@H]34)cc2)cc1,22.8,.,.,.,.,.
N#Cc1cccc(-c2ccc([C@@H]3[C@@H](CO)N4CCCCN(C(=O)Cc5ccccc5)C[C@@H]34)cc2)c1,0.0,.,.,.,.,.
N#Cc1ccc(-c2ccc([C@@H]3[C@@H](CO)N4CCCCN(C(=O)Cc5ccccc5)C[C@H]34)cc2)cc1,-11.1,.,.,.,.,.
O=C(Cc1ccccn1)N1CCCCN2[C@H](C1)[C@H](c1ccc(-c3ccccc3)cc1)[C@@H]2CO,-3.8,.,.,.,.,.
O=C(Cc1ccncc1)N1CCCCN2[C@H](C1)[C@@H](c1ccc(C#Cc3ccccc3F)cc1)[C@@H]2CO,-5.9,.,.,.,.,.
O=C(Cc1cccnc1)N1CCCCN2[C@@H](CO)[C@H](c3ccc(C#CC4(O)CCCC4)cc3)[C@@H]2C1,-6.2,.,.,.,.,.
O=C(Cc1ccccn1)N1CCCCN2[C@@H](CO)[C@H](c3ccc(Br)cc3)[C@@H]2C1,-5.5,.,.,.,.,.
O=C(O)[C@H]1[C@H](CO)[C@H]2Cn3c(ccc(-c4ccncc4)c3=O)[C@@H]1N2C(=O)C1CCCCC1,-3.6,.,.,.,.,.
O=C(Cc1ccccn1)N1CCCCN2[C@H](C1)[C@@H](c1ccc(-c3ccc(F)cc3)cc1)[C@@H]2CO,-5.9,.,.,.,.,.
N#Cc1cccc(-c2ccc([C@H]3[C@H]4CN(C(=O)Cc5ccncc5)CCCCN4[C@H]3CO)cc2)c1,-10.5,.,.,.,.,.
O=C(Cc1ccccn1)N1CCCCN2[C@H](C1)[C@H](c1ccc(-c3ccccc3F)cc1)[C@@H]2CO,0.6,.,.,.,.,.
O=C(Cc1ccccn1)N1CCCCN2[C@H](C1)[C@@H](c1ccc(-c3ccccc3F)cc1)[C@@H]2CO,-0.7,.,.,.,.,.
COc1ccc(C#Cc2ccc([C@@H]3[C@@H](CO)N4CCCCN(C(=O)Cc5ccncc5)C[C@@H]34)cc2)cc1,-2.1,.,.,.,.,.
O=C(Cc1cccnc1)N1CCCCN2[C@H](CO)[C@H](c3ccc(C#CC4CC4)cc3)[C@H]2C1,33.6,.,.,.,.,.
O=C(Cc1cccnc1)N1CCCCN2[C@H](CO)[C@H](c3ccc(C#CC4CCCC4)cc3)[C@H]2C1,3.7,.,.,.,.,.
COc1ccc(-c2ccc([C@@H]3[C@H]4CN(C(=O)Cc5ccncc5)CCCCN4[C@H]3CO)cc2)cc1,-7.4,.,.,.,.,.
OC[C@H]1[C@@H]2c3ccccc3NC[C@@H]2N1Cc1cccnc1,-14.6,.,.,.,.,.
COc1ccc(C#Cc2ccc([C@@H]3[C@@H](CO)N4CCCCN(C(=O)Cc5ccccc5)C[C@@H]34)cc2)cc1,4.9,.,.,.,.,.
COc1ccc(C#Cc2ccc([C@@H]3[C@@H](CO)N4CCCCN(C(=O)Cc5ccccc5)C[C@H]34)cc2)cc1,-3.8,.,.,.,.,.
O=C(Cc1cccnc1)N1CCCCN2[C@H](C1)[C@H](c1ccc(C#CC3(O)CCCC3)cc1)[C@@H]2CO,-8.1,.,.,.,.,.
CN1[C@@H](CO)[C@@H]2c3ccccc3NC[C@@H]21,-10.2,.,.,.,.,.
N#Cc1cccc(-c2ccc([C@@H]3[C@@H](CO)N4CCCCN(C(=O)Cc5cccnc5)C[C@@H]34)cc2)c1,-19.2,.,.,.,.,.
CN1c2ccc(Br)cc2[C@H]2NCC[C@H]2[C@H]1CO,-2.9&-1.0,.,.,.,.,.
O=C(Cc1cccnc1)N1CCCCN2[C@@H](CO)[C@@H](c3ccc(/C=C/c4ccccc4)cc3)[C@@H]2C1,-19.1,.,.,.,.,.
O=C(Cc1ccncc1)N1CCCCN2[C@@H](CO)[C@@H](c3ccc(C#Cc4ccccc4F)cc3)[C@@H]2C1,-8.1,.,.,.,.,.
O=C(Cc1ccccc1)N1C[C@H]2[C@@H](c3ccccc31)[C@@H](CO)N2Cc1ccccc1,-6.4,.,.,.,.,.
CC(C)CC#Cc1ccc([C@H]2[C@@H](CO)N3CCCCN(C(=O)Cc4ccccn4)C[C@H]23)cc1,17.4,.,.,.,.,.
O=C(Cc1ccncc1)N1CCCCN2[C@H](CO)[C@@H](c3ccc(C#Cc4ccccc4F)cc3)[C@@H]2C1,10.8,.,.,.,.,.

# One compound at a time, as listed above. Screens in order: UUG fidelity | CSC inhib | PABP polyA inh | HIV Env fusion | Rce1 inh | eIF4H inh
# Profile of Cc1nnc2n1-c1ccc(Cl)cc1C(c1ccccc1)=NC2 = . | . | -11.2 | . | . | -3.9
# Profile of O=C(Cc1ccccn1)N1CCCCN2[C@H](C1)[C@H](c1ccc(-c3ccccc3F)cc1)[C@@H]2CO = 0.6 | . | . | . | . | .

# Next section:
SMILES,UUG fidelity,CSC inhib,PABP polyA inh,HIV Env fusion,Rce1 inh,eIF4H inh
CSc1nc(C)c(Br)c(N2CC2)n1,-5.9,.,.,.,.,.
O=C(Cc1ccncc1)N1CCCCN2[C@H](C1)[C@@H](c1ccc(C#CC3(O)CCCC3)cc1)[C@@H]2CO,8.0,.,.,.,.,.
O=C(Cc1ccccn1)N1CCCCN2[C@H](CO)[C@@H](c3ccc(-c4ccc(F)cc4)cc3)[C@@H]2C1,34.1,.,.,.,.,.
N#Cc1cccc(-c2ccc([C@@H]3[C@@H](CO)N4CCCCN(C(=O)Cc5ccccc5)C[C@H]34)cc2)c1,-0.6,.,.,.,.,.
COc1ccc(C#Cc2ccc([C@H]3[C@@H](CO)N4CCCCN(C(=O)Cc5ccncc5)C[C@H]34)cc2)cc1,7.5,.,.,.,.,.
O=C(Cc1ccccn1)N1CCCCN2[C@H](CO)[C@H](c3ccc(Br)cc3)[C@H]2C1,-3.2,.,.,.,.,.
C/C=C/c1ccc([C@@H]2[C@@H](CO)N3CCCCN(C(=O)Cc4cccnc4)C[C@H]23)cc1,-14.0,.,.,.,.,.
COC(=O)[C@H]1[C@H](CO)[C@H]2Cn3c(ccc(C4=CCCCC4)c3=O)[C@@H]1N2Cc1ccccn1,-3.1,.,.,.,.,.
O=C(Cc1ccccn1)N1CCCCN2[C@H](C1)[C@H](c1ccc(Br)cc1)[C@@H]2CO,-10.2,.,.,.,.,.
O=C(Cc1ccccn1)N1CCCCN2[C@@H](CO)[C@H](c3ccc(-c4ccccc4F)cc3)[C@@H]2C1,-10.3,.,.,.,.,.
O=C(Cc1ccncc1)N1CCCCN2[C@H](CO)[C@H](c3ccc(-c4ccncc4)cc3)[C@@H]2C1,2.6,.,.,.,.,.
O=C(Cc1ccccc1)N1CCCCN2[C@H](CO)[C@@H](c3ccc(C#Cc4ccccc4)cc3)[C@@H]2C1,-2.5,.,.,.,.,.
O=C(Cc1ccccn1)N1CCCCN2[C@H](CO)[C@@H](c3ccc(-c4ccccc4)cc3)[C@H]2C1,-13.8,.,.,.,.,.
O=C(Cc1ccccn1)N1CCCCN2[C@H](CO)[C@@H](c3ccc(-c4ccc(F)cc4)cc3)[C@H]2C1,-0.6,.,.,.,.,.
COC(=O)[C@@H]1[C@@H](CO)[C@@H]2Cn3c(ccc(-c4ccccc4F)c3=O)[C@H]1N2,.,.,.,-5.6[16.7 µM],.,.
O=C(O)[C@H]1[C@H](CO)[C@H]2Cn3c(ccc(-c4ccc(F)cc4)c3=O)[C@@H]1N2CC1CCCCC1,.,.,.,-3.9[16.7 µM],.,.
O=C(NCCN1CCC2(CC1)C(=O)NCN2c1ccccc1)c1ccc(F)c(F)c1,.,.,.,3.5,.,.
CCCN1[C@@H]2Cn3c(cccc3=O)[C@H]1[C@@H](C(=O)N(C)C)[C@@H]2CO,.,.,.,-21.2[16.7 µM],.,.
O=C(NCCN1CCC2(CC1)C(=O)NCN2c1ccccc1)c1ccccc1C(F)(F)F,.,.,.,9.6,.,.
COC(=O)[C@@H]1[C@@H](CO)[C@@H]2Cn3c(cccc3=O)[C@H]1N2CCc1ccccc1,.,.,.,6.1[16.7 µM],.,.
Cc1cc(N2CCNC[C@H]2C)ccc1N1CC[C@H](O)C1,.,.,.,-14.2,.,.
COC(=O)C[C@@H]1CC[C@@H]2NC[C@H](O)COC[C@H]2O1,.,.,.,7.9[16.7 µM],.,.
Brc1ccc2c(c1)CNCc1cnnn1-2,.,.,.,10.0,.,.
COP(=O)(OC)OC=C(Cl)Cl,.,.,.,-4.7,.,.
O=C(O)C[C@H]1CC[C@@H]2NC[C@H](O)COC[C@H]2O1,.,.,.,-11.1[16.7 µM],.,.
Cc1ccc2nc(-c3ccc(CN4CCC(n5c(=O)[nH]c6cc(Cl)ccc65)CC4)cc3)c(-c3ccccc3)nc2c1,.,.,.,-42.5,.,.
O=C(O)[C@@H]1[C@@H](CO)[C@@H]2Cn3c(ccc(-c4ccc(F)cc4)c3=O)[C@H]1N2CC1CCCCC1,.,.,.,1.5[16.7 µM],.,.
COC(=O)[C@@H]1[C@@H](CO)[C@@H]2Cn3c(ccc(-c4cccnc4)c3=O)[C@H]1N2S(=O)(=O)c1ccccc1C,.,.,.,1.0[16.7 µM],.,.
COc1ccc(C(O)(c2cncnc2)C2CC2)cc1 (configuration not stated),.,.,.,-10.7[16.7 µM],.,.
CCOC(=O)C1=C(C(=O)OCC)C2(c3ccccc3)c3ccccc3C1(C)N2C (configuration not stated),.,.,.,35.0,.,.
CN1[C@@H]2c3cccc(=O)n3C[C@H]1[C@H](CO)[C@H]2C(=O)NCC1CC1,.,.,.,2.5[16.7 µM],.,.

# High-throughput results from PubChem.

# Some of the compounds tested (hit frequency here may not be typical).
